High-throughput results deposited in PubChem by several laboratories.
RecA intein inh = inhibitors of M. tuberculosis RecA intein splicing; P9WHJ3; cell-free RecA intein splicing, fluorescence; inhibition, %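 (about 9 µM by stock and volumes)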; hit rate 0.75% among 290,000; in the data active = inhibition above about 30%;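 note: 0% = vehicle wells and 100% = reference inhibitor control wells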
Target sequence (P9WHJ3 whole entry, looked up): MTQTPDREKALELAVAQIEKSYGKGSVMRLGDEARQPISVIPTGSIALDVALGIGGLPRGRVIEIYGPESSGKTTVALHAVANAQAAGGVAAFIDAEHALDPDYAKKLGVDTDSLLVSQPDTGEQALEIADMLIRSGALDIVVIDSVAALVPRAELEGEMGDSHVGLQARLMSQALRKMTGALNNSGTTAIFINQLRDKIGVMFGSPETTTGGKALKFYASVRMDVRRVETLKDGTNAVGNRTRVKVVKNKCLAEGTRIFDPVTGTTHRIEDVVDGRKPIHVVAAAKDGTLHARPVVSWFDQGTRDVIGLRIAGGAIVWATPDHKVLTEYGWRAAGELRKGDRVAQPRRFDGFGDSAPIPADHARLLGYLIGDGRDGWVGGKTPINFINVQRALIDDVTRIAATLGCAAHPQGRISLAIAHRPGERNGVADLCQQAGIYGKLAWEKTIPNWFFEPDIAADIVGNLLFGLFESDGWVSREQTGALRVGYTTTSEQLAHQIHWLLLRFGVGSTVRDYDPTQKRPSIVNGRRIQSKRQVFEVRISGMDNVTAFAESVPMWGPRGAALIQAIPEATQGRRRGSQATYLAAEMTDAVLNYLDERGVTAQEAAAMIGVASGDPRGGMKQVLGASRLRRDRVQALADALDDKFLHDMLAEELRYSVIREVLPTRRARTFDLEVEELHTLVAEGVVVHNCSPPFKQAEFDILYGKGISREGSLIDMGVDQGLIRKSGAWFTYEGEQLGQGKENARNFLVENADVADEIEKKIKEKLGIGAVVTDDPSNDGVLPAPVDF
Mtb H37Rv = M. tuberculosis H37Rv growth inhibitors, H37Rv strain (AID 1626) | M. tuberculosis H37Rv growth inhibition; higher % means a stronger effect | one-dose inhibition, % at 10 µM; IC50 in µM for titrated hits | hit rate 0.95% among 220,000;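 active = confirmed in a dose series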;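 note: bacteria incubated seven days before Alamar blue readout; 0% = bacteria only wells and 100% = bacteria with antibiotic wells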
Arbovirus inh = arbovirus infection inhibition | inhibition, % at 10 µM | arbovirus infection cell-based antiviral screen | hit rate 0.37% among 200,000 | AID 1251;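 active = inhibition from about 30%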;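 note: bluetongue infection of BSR cells; cell survival read as ATP light after 72 h; 0% = infected wells without compound and 100% = uninfected wells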
YopH PTP inh = blocks Yersinia enterocolitica YopH tyrosine phosphatase; fluorescence Ex485/Em525; inhibition, %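 (about 10 µM by stock and volumes)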; hit rate 0.16% among 140,000; AID 898;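 active = inhibition of 50% or more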;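 note: controls were vehicle for no effect and minimum signal wells for full effect; inactives centre near -20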
Mtb bLac sens = beta-lactam sensitization of Mtb H37Rv; M. tuberculosis H37Rv growth with meropenem, percent inhibition; hits of this screen are not shown here; inhibition, % at 25 µM; hit rate 0.27% among 330,000;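 active = about 74% or more and at least 40 points above the plate without the antibiotic, then above 30% in a dose series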;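 note: growth measured after seven days incubation then overnight dye step; 0% = bacteria only wells and 100% = bacteria with antibiotic; twin plates without the antibiotic show which effects depend on it; some results filed as inactive read as strong as hits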
Arbovirus inh repeat = further read-out of Arbovirus inh, marked with its call; inhibition, %; measured here: 10K subset replicate screen; many hits read low in the repeat;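 first of two repeat runs on a subset; 0% = infected and 100% = uninfected wells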
Active calls of the source: *. These rows are one share of the data; count on the stated rates, not on these rows.

Preview, four compounds:
O=C(c1cccc(N2C(=O)C3C4C=CC(C4)C3C2=O)c1)N1CCN(c2ccccc2)CC1 (configuration not stated) was read as RecA intein inh 0.3, Mtb H37Rv -5%, Arbovirus inh 14 and Mtb bLac sens -3.
`CC(NC(=O)C12CC3CC(CC(C3)C1)C2)c1ccc2c(c1)OCCO2` (configuration not stated) gave Mtb H37Rv -3%, Arbovirus inh -3, YopH PTP inh -16 and Mtb bLac sens 6.
Cc1ccc(NC(=O)CSc2nnc(CNC(=O)c3cccs3)o2)cc1 was read as RecA intein inh -1.0, Mtb H37Rv -4%, Arbovirus inh 5 and Mtb bLac sens 5.
Screening Cc1cc(NCCN2CCOCC2)n2nc(C)c(-c3ccc(Cl)cc3)c2n1 returned RecA intein inh 2.8, Mtb H37Rv 18%, Arbovirus inh -6, YopH PTP inh -40 and Mtb bLac sens 76.

The whole of this part, repeating the preview:
O=C(c1cccc(N2C(=O)C3C4C=CC(C4)C3C2=O)c1)N1CCN(c2ccccc2)CC1 (configuration not stated) was read as RecA intein inh 0.3, Mtb H37Rv -5%, Arbovirus inh 14 and Mtb bLac sens -3.
`CC(NC(=O)C12CC3CC(CC(C3)C1)C2)c1ccc2c(c1)OCCO2` (configuration not stated) gave Mtb H37Rv -3%, Arbovirus inh -3, YopH PTP inh -16 and Mtb bLac sens 6.
Cc1ccc(NC(=O)CSc2nnc(CNC(=O)c3cccs3)o2)cc1 was read as RecA intein inh -1.0, Mtb H37Rv -4%, Arbovirus inh 5 and Mtb bLac sens 5.
Screening Cc1cc(NCCN2CCOCC2)n2nc(C)c(-c3ccc(Cl)cc3)c2n1 returned RecA intein inh 2.8, Mtb H37Rv 18%, Arbovirus inh -6, YopH PTP inh -40 and Mtb bLac sens 76.
O=C(CN(c1ccccc1)S(=O)(=O)c1ccccc1[N+](=O)[O-])N1CCCC1 was read as RecA intein inh -0.6 and Mtb bLac sens 0.
Screening CC(C)[C@H](NC(=O)[C@@H]1Cc2ccccc2CN1C(=O)OC(C)(C)C)C(=O)NCC1CCCO1 (some centres not stated) returned RecA intein inh -1.6 and Mtb bLac sens -4.
Screening CN1CCN(C2=CC(=O)OC23CCCCC3)CC1 returned RecA intein inh -0.2, Mtb H37Rv -19%, Arbovirus inh 1, YopH PTP inh -27 and Mtb bLac sens -13.
O=C(c1ccccc1)N1CCCN(c2nccc(C(F)(F)F)n2)CC1 was read as RecA intein inh 0.0, Mtb H37Rv -13% and Mtb bLac sens -8.
NC(=O)CC(NC(=O)c1ccc(Br)cc1)c1ccc(NCc2ccc(F)c(F)c2)c([N+](=O)[O-])c1 (configuration not stated) was read as RecA intein inh -1.1, Mtb H37Rv 10% and Mtb bLac sens -1.
Screening O=C(CCNS(=O)(=O)c1ccccc1)OCC(=O)c1ccc(Br)cc1 returned RecA intein inh 0.8 and Mtb bLac sens -6.
CC(/C=N/NC(=O)CNc1n[nH]c(=O)[nH]c1=O)c1ccccc1 (configuration not stated) was read as RecA intein inh 3.2, Mtb H37Rv -1% and Mtb bLac sens -1.
Screening Cc1ccccc1Nc1nc(N)nc(CN2CCN(C(=O)c3ccccc3)CC2)n1 returned RecA intein inh -0.3, Mtb H37Rv 4%, Arbovirus inh -2 and Mtb bLac sens -2.
For O=C(NNS(=O)(=O)c1ccccc1[N+](=O)[O-])c1ccc(O)cc1 the results were RecA intein inh 16, Mtb H37Rv -2%, Arbovirus inh -6, YopH PTP inh -21 and Mtb bLac sens 12.
For COc1ccc2cc(C(=O)CS(=O)(=O)c3ccccc3)c(=O)oc2c1 the results were RecA intein inh 0.7 and Mtb bLac sens -7.
For COCCn1c(SCC(=O)Nc2ccc(C(N)=O)cc2)nc2c([nH]c3ccccc32)c1=O the results were RecA intein inh 2.3 and Mtb bLac sens 4.
COC(=O)c1ccc(/C=C/c2c(-c3ccsc3)sc3ccccc23)cc1 was read as RecA intein inh 0.3 and Mtb bLac sens 74.
Screening CCOC(=O)C1CCCCN1Cc1cccc(OC)c1OC (configuration not stated) returned RecA intein inh 4.3, Mtb H37Rv 2%, Arbovirus inh 5, YopH PTP inh 16 and Mtb bLac sens 4.
For O=C(O)c1ccccc1C(=O)Nc1ccc(Br)c(C(F)(F)F)c1 the results were RecA intein inh -0.4, Mtb H37Rv -16% and Mtb bLac sens -4.
For O=C(c1cn(-c2ccccc2)nc1-c1ccc(Cl)s1)N1CCOCC1 the results were RecA intein inh 2.2, Mtb H37Rv 9%, Arbovirus inh -11, YopH PTP inh -16 and Mtb bLac sens 46.
For C/C(CC(=O)Nc1cccc(Cl)c1Cl)=N\NC(=O)c1ccccc1N the results were Mtb H37Rv 0%, Arbovirus inh -15 and Mtb bLac sens 4.
For CN(CCc1ccccc1)C(=O)CCc1nnc(Cc2ccc3c(c2)OCO3)o1 the results were RecA intein inh 0.8 and Mtb bLac sens -1.
Screening Cc1ccc(NC(=O)C2CCCN(C(=O)c3ccc(Cl)cc3)C2)cc1S(=O)(=O)N1CCOCC1 (configuration not stated) returned RecA intein inh -5.0, Mtb H37Rv 10%, Arbovirus inh 5 and Mtb bLac sens 8.
Screening O=C(c1ccco1)c1cn(Cc2ccccc2)c2ccccc12 returned RecA intein inh 19, Mtb H37Rv 11%, Arbovirus inh 13, YopH PTP inh 5 and Mtb bLac sens 72.
N#Cc1ccc(CSC2=NCCN2)cc1 was read as RecA intein inh 1.5, Mtb H37Rv 6%, Arbovirus inh 1 and Mtb bLac sens -4.
For Cc1nn(-c2ccccc2)c(C)c1C(=O)OCC(=O)N(C)C1CCS(=O)(=O)C1 (configuration not stated) the results were Mtb H37Rv 3%, Arbovirus inh 9 and Mtb bLac sens -7.
For Cc1cccc(NC(=O)c2ccccc2C(=O)Nc2cccc(C)c2)c1 the results were RecA intein inh 2.2 and Mtb bLac sens -2.
O=S(=O)(Nc1ccc(O)c2ccccc12)c1ccc(Br)cc1 was read as RecA intein inh -2.7 and Mtb bLac sens 0.
For O=C(CSCc1ccccc1Br)N/N=C/c1ccccc1C(=O)O the results were RecA intein inh 2.4, Mtb H37Rv 6%, Arbovirus inh 0 and Mtb bLac sens 1.
For COC(=O)c1nnn(CC(=O)NC(=O)Nc2ccccc2F)c1C(=O)OC the results were RecA intein inh -0.5, Mtb H37Rv -5%, Arbovirus inh 1 and Mtb bLac sens -2.
Screening COc1ccc(NC(=O)NC2CCCCCCC2)cc1 returned RecA intein inh 1.0 and Mtb bLac sens 99.
`COc1ccc(-n2c(=O)cc(N3CCN(Cc4ccccc4)CC3)[nH]c2=O)cc1` gave RecA intein inh 3.9, Mtb H37Rv 4%, Arbovirus inh -2, YopH PTP inh -5 and Mtb bLac sens 1.
COc1ccccc1S(=O)(=O)Nc1ccc(-c2nnc3n2CCCCC3)cc1 was read as RecA intein inh 2.8, Mtb H37Rv 1%, Arbovirus inh -3, YopH PTP inh -165 and Mtb bLac sens -8.
For Cc1ccc(-c2nc(SC(C)C(=O)c3c(N)n(C)c(=O)n(C)c3=O)n[nH]2)cc1 (configuration not stated) the results were RecA intein inh 0.1 and Mtb bLac sens -5.
`Cn1ccnc1C1CCCCN1Cc1nc(Cc2cccc(C(F)(F)F)c2)no1` (configuration not stated) gave RecA intein inh 1.6, Mtb H37Rv 2%, Arbovirus inh 5 and Mtb bLac sens -9.
For COc1ccc(Cl)cc1NC(=O)CC(C)c1ccccc1 (configuration not stated) the results were RecA intein inh 0.3, Mtb H37Rv 13%, Arbovirus inh 1, YopH PTP inh -3 and Mtb bLac sens -8.
`COCCN1Cc2cccc(C(=O)NCCCN3CCCC3=O)c2C1=O` gave RecA intein inh -1.6, Mtb H37Rv -1% and Mtb bLac sens -3.
CC(=O)Nc1ccc(CN2CCCC(CO)(Cc3ccccc3C)C2)cc1 (configuration not stated) was read as RecA intein inh -1.3, Mtb H37Rv -1%, Arbovirus inh -19 and Mtb bLac sens -20.
COc1ccc(N2C(=O)CCC(C(=O)N3CCCCC3)C2c2ccc(OC)c(OC)c2)cc1 (configuration not stated) was read as RecA intein inh -4.8, Mtb H37Rv -2%, Arbovirus inh 1, YopH PTP inh -133, Mtb bLac sens -2 and Arbovirus inh repeat 2.
CCN1CCN(S(=O)(=O)Cc2ccccc2Cl)CC1 was read as RecA intein inh 0.0 and Mtb bLac sens -21.
`CCO[C@@H]1OC(C(=O)NC2CC2)=C[C@H](C2CC2)[C@H]1CCCO` gave RecA intein inh 0.8, Mtb H37Rv -11% and Mtb bLac sens 6.
COc1cccc(CNC(=O)CN2C(=O)COc3ccc(S(=O)(=O)N4CCOCC4)cc32)c1 was read as RecA intein inh 1.4 and Mtb bLac sens 3.
For Cc1nnc(NC(=O)c2ccc(S(=O)(=O)N3CCCCCC3)cc2)o1 the results were RecA intein inh 0.1, Mtb H37Rv -6%, Arbovirus inh -4, YopH PTP inh -50 and Mtb bLac sens 90.
For CCCCC1=CC2=C(c3ccco3)C(=O)C(C)(OC(=O)c3ccc(OC)cc3)C(=O)C2=CN1Cc1ccc2c(c1)OCO2 (configuration not stated) the results were RecA intein inh 0.9, Mtb H37Rv -9% and Mtb bLac sens 4.
`COc1ccc(-c2cc([C@H]3[C@H]4C=CC[C@@H](C)[C@@H]4C(=O)N3Cc3ccccc3)ccc2F)cc1` gave RecA intein inh 4.2, Mtb H37Rv 2% and Mtb bLac sens -5.
`Cc1cc(NC(=O)COc2ccccc2C)no1` gave RecA intein inh -0.2, Mtb H37Rv -3%, Arbovirus inh -9 and Mtb bLac sens 1.
For COc1ccc(O)c(C(=O)C2c3ccccc3C(=O)N2c2ccc(C)cc2)c1 (configuration not stated) the results were RecA intein inh -9.6, Mtb H37Rv -5% and Mtb bLac sens -7.
`Cc1ccc(S(=O)(=O)Nc2cc(=O)[nH]c3c2CCC3)cc1` gave RecA intein inh -4.5, Mtb H37Rv -6% and Mtb bLac sens -3.
Screening Cc1ccc(C)c(NC(=S)NCc2ccc3c(c2)OCO3)c1 returned RecA intein inh 4.5, Mtb H37Rv -10%, Arbovirus inh 1, YopH PTP inh 2 and Mtb bLac sens -9.
`CCOc1nc(OCC)nc(-n2cc(-c3ccccc3)nn2)n1` gave RecA intein inh 1.8, Arbovirus inh -1, YopH PTP inh -60 and Mtb bLac sens 10.
For COC(=O)c1ccc(/C=N/NS(=O)(=O)c2cc(C)ccc2C)cc1 the results were RecA intein inh 2.5, Mtb H37Rv -1%, Arbovirus inh -2, YopH PTP inh -10 and Mtb bLac sens 0.
For O=C(Nc1ccc2c(c1)OCCO2)C1CCCN(S(=O)(=O)c2cccs2)C1 (configuration not stated) the results were RecA intein inh 0.7, Mtb H37Rv 1%, Arbovirus inh -7, YopH PTP inh -36 and Mtb bLac sens -3.
Screening CC(C)CN1C(=O)c2ccc(C(=O)Nc3c[nH]c(=O)[nH]c3=O)cc2C1=O returned RecA intein inh -1.5, Mtb H37Rv 1%, Arbovirus inh 3 and Mtb bLac sens -1.
Screening CN(Cc1ccc(C(F)(F)F)cc1)C(=O)C1CCC(=O)N(C2CC2)C1 (configuration not stated) returned RecA intein inh -1.2 and Mtb bLac sens 12.
`Cc1ccc(CSc2nnc(Nc3ccc(C)cc3)s2)cc1` gave RecA intein inh -0.7, Mtb H37Rv -3%, Arbovirus inh -3, YopH PTP inh -13 and Mtb bLac sens 5.
Screening c1ccc(Sc2cccc3ccccc23)c(CNC2=NCCN2)c1 returned RecA intein inh 7.1, Mtb H37Rv 6%, Arbovirus inh -28, YopH PTP inh -25 and Mtb bLac sens -1.
`CCOC(=O)C1=C(C)N=C2SC(C(=O)OC)=CC(=O)N2C1c1ccc(OC)cc1` (configuration not stated) gave RecA intein inh 8.7, Mtb H37Rv -7%, Arbovirus inh 0 and Mtb bLac sens 34.
`CCOC(=O)/C(=C/c1ccc(OC(=O)c2ccccc2)cc1)C(C)=O` gave RecA intein inh 10, Mtb H37Rv 5%, Arbovirus inh -8, YopH PTP inh -19 and Mtb bLac sens 0.
For CSc1ncc(CN2CCN(C3CCCC3)C(CCO)C2)cn1 (configuration not stated) the results were RecA intein inh -2.9, Mtb H37Rv 1%, Arbovirus inh 2 and Mtb bLac sens -4.
Screening Cc1noc(C)c1C(=O)N1CCC2(CC1)Oc1ccc(F)cc1C(=O)C21CC(c2ccc(Cl)cc2)=NO1 (configuration not stated) returned RecA intein inh 4.4, Mtb H37Rv 23% and Mtb bLac sens 90.
COc1ccc(Oc2nc(SC)nc3ccsc23)cc1 was read as RecA intein inh -1.5, Mtb H37Rv 6%, Arbovirus inh -8, YopH PTP inh -32 and Mtb bLac sens 7.

Three entries from above, sorted by molar mass, ascending:
Screening c1ccc(Sc2cccc3ccccc23)c(CNC2=NCCN2)c1 returned RecA intein inh 7.1, Mtb H37Rv 6%, Arbovirus inh -28, YopH PTP inh -25 and Mtb bLac sens -1.
For O=C(Nc1ccc2c(c1)OCCO2)C1CCCN(S(=O)(=O)c2cccs2)C1 (configuration not stated) the results were RecA intein inh 0.7, Mtb H37Rv 1%, Arbovirus inh -7, YopH PTP inh -36 and Mtb bLac sens -3.
`COc1ccc(-c2cc([C@H]3[C@H]4C=CC[C@@H](C)[C@@H]4C(=O)N3Cc3ccccc3)ccc2F)cc1` gave RecA intein inh 4.2, Mtb H37Rv 2% and Mtb bLac sens -5.
